Assay outcomes (PubChem BioAssay)
HIV TAR-Tat: TAR RNA-Tat peptide displacers, HIV-1, primary screen, biochemical, FRET, FAM/TAMRA-labeled Tat | HIV-1 TAR RNA, Tat peptide displacement FRET; stronger effect = higher value | z-score (no concentration beside the values) | actives 0.6% (n = 100,000) | AID 1259389, 2018;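 also: score is relative to mean and SD of negative controls; some compounds called inactive have numbers as strong as hits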
CDC25B-CDK2 inh: primary biochemical HTRF screen for blockers of M-phase inducer phosphatase 2 binding to CDK2/cyclin A. HTRF CDC25B-CDK2/CyclinA binding, anti-His/anti-Flag; stronger effect = higher value. z-score (no concentration beside the values). actives 0.72% (n = 94,000). AID 1259370, 2018;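 also: score is relative to mean and SD of negative controls; strong numbers were not always called active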
The depositor's hits bear a star; . = not tested or not shown.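 The calls were made as follows: active = z-score from 3 up in half or more of its runs; inactive = the rest.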

SMILES	HIV TAR-Tat	CDC25B-CDK2 inh
COc1cc(OC)cc(-n2nnc(-c3nc(-c4cccnc4)no3)c2N)c1	1.04	.
COc1ccc(Nc2nc(-c3ccc(OC)cc3)no2)cc1	0.15	-3.26
Cc1nc(C)c(-c2n[nH]c(=S)n2C)s1	.	-1.13
COc1cnc(CSc2nnc(C)s2)cc1OCC(=O)Nc1ccc2c(c1)OCCO2	0.83	.
Cc1ccc(OCC(O)CN2CCC(C(N)=O)CC2)c([N+](=O)[O-])c1 (stereo not drawn)	.	-1.76
CCc1nnc2c(NCCCN3CCN(c4ccccc4)CC3)nc3ccccc3n12	-0.39	.
O=C(NCc1csc(-c2cccs2)n1)[C@H]1CSCN1C(=O)c1ccccc1F	0.95	.
Cc1cn2c(=O)c(S(=O)(=O)N3CCN(c4ccc(F)cc4)CC3)c(C)nc2s1	-0.42	.
Cc1ccc(-c2ncc3c(=O)[nH]c(=O)n(C)c3n2)cc1	0.01	-4.14
CCc1ccc(C2=Nn3c(nnc3-c3ccccc3OC)SC2)cc1	0.72	.
COc1cccc(/C=C/c2nc(C#N)c(NCCc3ccc(OC)c(OC)c3)o2)c1	1.35	-0.18
O=C1CN(C(=O)c2ccc3c(c2)OCO3)C(c2ccc(F)cc2)c2cc(Br)ccc2N1 (stereo not drawn)	0.53	0.26
Cc1occc1-c1nnc(SCC(=O)Nc2nccs2)o1	2.43	-0.68
O=C(OCCc1ccccn1)c1cnn2c(C(F)(F)F)cc(-c3ccc(F)cc3)nc12	0.7	-2.2
O=C1CSC(c2ccc3cccc(O)c3n2)N1c1ccc(F)c(Cl)c1 (stereo not drawn)	1.16	0.99
CN(CCO)c1cc(N2CCN(c3ccccn3)CC2)c2noc3c2c1C(=O)c1ccccc1-3	0.44	-1.18
CCOC(=O)N1CCN(c2ncnc3c2cnn3-c2ccc(Cl)cc2)CC1	0.63	.
Cc1cc(N)c(-n2cc3c(c2-c2ccc(Cl)cc2)c(=O)n(C)c(=O)n3C)cc1C	0.29	-1.21
CCOC(=O)Cn1cnc2nn(-c3ccccc3)cc2c1=O	5.14*	3.59
COC(=O)C(CCSC)NC(=O)C(CC(C)C)NC(=O)c1cccnc1SC (stereo not drawn)	.	-2.4
Cc1ccccc1N1CC(O)=C(c2nc3ccccc3s2)C1=N	0.82	-0.13
CS(=O)(=O)Nc1ccc2c(c1)N(S(=O)(=O)c1ccccc1)CCC2	1.68	.
Cc1cccc(-n2c(C)c(C)c3c2ncn2nc(-c4cccs4)nc32)c1	0.57	-2.06
O=c1ccc(-c2ccc(S(=O)(=O)N3CCc4ccccc43)o2)n[nH]1	-2.16	.
O=C(Cn1c(=O)oc2ccccc21)Nc1nc2ccc(Cl)cc2s1	0.71	.
COC(=O)c1cc2nc(-c3ccc(Br)cc3)cc(C(F)(F)F)n2n1	1.87	.
Cc1c(C(=O)N2CCCC2)oc2ccc3c(c12)C(O)CC(C)(C)O3 (stereo not drawn)	-0.47	.
Cc1ccccc1/C=C/c1nn2c(-c3ccoc3C)nnc2s1	0.29	-1.16
O=S(=O)(NC1CCN(Cc2ccccc2)CC1)c1cccc2cccnc12	.	0.13
CCOC(=O)c1c(C)c(=O)oc2c1c(=O)[nH]n2-c1ccccc1	.	-0.15
O=C(c1cnn2c(C(F)F)cc(-c3ccccc3)nc12)N1CCc2ccccc2C1	3.8	-1.51
Clc1ccc(-c2noc(CNC3CCCCC3)n2)cc1	3.05	-0.96
CCSc1nnc(NC(=O)c2cc(-c3ccc(OC)cc3)nc3ccccc23)s1	.	-3.58
COC(=O)c1ccc2c(=O)n(Cc3ccc4c(c3)OCO4)c(SCC(=O)N3CCCC3)nc2c1	2.2	-1.27
CCN1CCN(C(=O)C2CCN(c3nnc(-n4c(C)ccc4C)s3)CC2)CC1	-1.53	-1.96
CCCCn1c(=O)c2sccc2n2c(CCC(=O)N3CCN(C(=O)c4ccco4)CC3)nnc12	0.4	.
CCCCn1c(SCC(=O)O)nc2c1c(=O)[nH]c(=O)n2C	1.77	-2.32
CC1=C(C#N)C(c2ccc(-c3ccc(Cl)cc3[N+](=O)[O-])o2)C(C#N)=C(C)N1	.	-1.5
CC1CCCCN1C(=O)c1cc2c(s1)-c1ccccc1S(=O)(=O)C2 (stereo not drawn)	1.45	-1.98
Nc1nnc2sc(SCC(=O)O)nn2c1=O	.	-1.52
Cc1ccc(NS(=O)(=O)c2ccc(/C=C/c3onc(C)c3[N+](=O)[O-])s2)cc1	0.96	.
COc1ccc(-c2csc3[nH]c(=S)[nH]c(=O)c23)cc1	.	-1.02
Cc1ccccc1CNCc1ccc2c(c1)OCO2	1.66	-0.86
Cc1ccccc1C(=O)Nc1cnc2sc3c(n2c1=O)CCC(C(C)(C)C)C3 (stereo not drawn)	1.23	-0.57
COCCN1C(=O)c2oc3cc(C)c(C)cc3c(=O)c2C1c1ccc(SC)cc1 (stereo not drawn)	9.09	-0.04
COc1ccc2cc(CCNC(=O)CC3CCCCC3)c(=O)[nH]c2c1	.	-2.1
Cc1csc2sc(/C=C(\C#N)S(=O)(=O)c3cccs3)c(C)c12	.	-0.04
CC12CN3CC(c4ccccc4)(CN(C1)C3c1ccc(O)cc1)C2=O (stereo not drawn)	2.05	-1.17
Clc1ccccc1-c1nnc(C(Nc2ccc3c(c2)OCCO3)c2ccccc2)o1 (stereo not drawn)	-0.02	.
Clc1ccc(-c2noc3ncnc(N4CCOCC4)c23)cc1	-0.85	-1.36

More compounds
SMILES	HIV TAR-Tat	CDC25B-CDK2 inh
O=C(CSc1nccn(-c2ccc(F)cc2)c1=O)Nc1ccc(Br)cc1	1.15	.
CC1(C)C2CCC1(C(=O)O)c1nc3ccccc3nc12 (stereo not drawn)	0.05	-0.1
O=C(Nc1ccc2c(c1)C(=O)N(c1ccccc1)C2=O)c1ccco1	.	-0.59
CCOC(=O)c1c(C)oc2nc(C)nc(N3CCN(c4ccc(Cl)cc4)CC3)c12	1.95	.
O=C(c1cc(C2CC2)on1)N1CCCc2ccccc21	0.15	-1.15
Cc1ccc(C)n1-c1ccc(C(=O)ON2C(=O)CCC2=O)cc1	.	-1.13
CC12CN3CC(C)(CN(C1)C3c1ccc(O)cc1)C2O (stereo not drawn)	1.19	-0.61
CCCN1CCN(CCCNC(=O)C2CCCN(c3nnc(-n4cccc4)s3)C2)CC1 (stereo not drawn)	2.33	-0.28
CC(C#N)(Nc1ccccc1)c1cccnc1 (stereo not drawn)	.	-1.46
C(=C\c1ccccc1)/Cn1cnc2ccccc21	0.83	-1.59
O=C(C1CCN(c2ccc(-c3cccs3)nn2)CC1)N1CCN(C2CCCCC2)CC1	0.1	.
COc1ccccc1-c1c(C)nn2c(N)c(-c3ccccc3)cnc12	0.71	-4.78
CCCN1C(=O)C(O)(CC(=O)c2ccc(C)o2)c2cc(Br)ccc21 (stereo not drawn)	0.14	-0.67
Fc1cccc(-c2nc3ncccn3c2NCc2ccc(Cl)cc2)c1	0.99	.
COc1ccc(NC(=O)CSc2nccn2C2CCCC2)cc1	1.21	.
COc1ccc(C2NC(=O)c3c(sc4c3CC(C)(C)OC4)N2)cc1 (stereo not drawn)	1.46	-0.64
COc1ccc(/C(O)=C2/C(=O)C(=O)N(CCc3ccccc3)C2c2ccc(Br)cc2)cc1 (stereo not drawn)	1.32	-2.82
O=C(NCCCN1CCOCC1)c1cc2c(s1)-c1ccccc1S(=O)(=O)C2	1.45	-3.53
Cn1c(CSc2nc3ccccc3s2)n[nH]c1=S	.	-2.29
Cc1nn2c(-c3ccco3)nnc2c2ccccc12	-0.85	-1.28

Single records (already shown).
COc1ccc(NC(=O)CSc2nccn2C2CCCC2)cc1 is entered as HIV TAR-Tat = 1.21; CDC25B-CDK2 inh = .
Cc1nn2c(-c3ccco3)nnc2c2ccccc12 is entered as HIV TAR-Tat = -0.85; CDC25B-CDK2 inh = -1.28

Remaining list, next part:
SMILES	HIV TAR-Tat	CDC25B-CDK2 inh
COCCCn1c2c(c(=O)[nH]c1=O)C(c1ccccc1OC)C1=C(N2)c2ccccc2C1=O (stereo not drawn)	-0.07	-1.64
Cn1c(=O)c2c(ncn2CC(=O)Nc2ccc3c(c2)OCCO3)n(C)c1=O	1.25	1.46
Cc1oc(-c2ccc(Cl)cc2)nc1CSc1nc2ncccc2[nH]1	0.57	.
CCC(C)NC(=O)c1cccn(-c2ccc(NC(C)=O)cc2)c1=O (stereo not drawn)	0.79	.
O=C(Nc1ccc(F)cc1F)c1ccc(-c2ccc(Cl)cc2)s1	.	-1.91
O=C(NCC(c1ccco1)S(=O)(=O)c1ccc(F)cc1)c1ccco1 (stereo not drawn)	2.3	.
CC1CCN(S(=O)(=O)c2ccc(S(=O)(=O)Nc3ccc4cnn(C)c4c3)cc2)CC1	0.69	-1.26
CC(=O)Nc1ccccc1-c1nnc(-c2ccc(C(C)(C)C)cc2)o1	.	-1.19
COc1ccccc1-n1c(SCC(=O)N2CCN(c3ccccc3)CC2)nc2c(c1=O)SCC2	0.7	-0.57
COc1ccc(-c2noc(N(C)Cc3ccccc3)n2)cc1OC	-1.19	.
Cc1ccc(O)c(-c2cc(C(F)(F)F)on2)c1	.	-0.61
CCCCSc1nnc2[nH]c(=O)cc(N)n12	-0.54	-1.1
O=c1[nH]c(SCCCOc2ccc(Cl)cc2)nc2c1CCCC2	-0.33	-0.89
O=C(NCCCn1ccnc1)Nc1cccc2ccccc12	.	-1.01
Cc1oc2ncnc(N3CCOCC3)c2c1C(=O)NCc1cccs1	-0.11	.
Cc1ccc(-c2noc(-c3nnn(-c4ccc(F)cc4)c3N)n2)cc1	0.03	.
FC(F)(F)c1nnc2sc(-c3ccc4c(c3)OCCO4)nn12	1.98	-1.69
NC(=O)CSc1nc2ccc(NC(=O)COc3ccc(Cl)cc3)cc2s1	0.6	0.69
COc1ccc(-c2oc3ccc(C)cc3c(=O)c2O)cc1	0.28	2.51
CC(C)n1c(=S)[nH]c2cc(C(F)(F)F)ccc21	.	-1.96
O=c1c2c(-c3ccccc3)csc2ncn1C1CCCCC1	0.65	-0.46
O=c1nc(N2CCOCC2)ccn1-c1nc(-c2ccccc2)oc1-c1ccccc1	.	3.33
Cc1cc(C)c2c(-n3cccc3)nn(CC(=O)NCCN3CCCC3)c2n1	0.49	.
CCN(CC)c1ncnc2c1cnn2-c1ccc(OC)cc1	-0.11	.
O=C(NCCn1cc(SCC(=O)N2CCc3ccccc32)c2ccccc21)c1c(F)cccc1F	0.87	0.38
CCC(C)OC(=O)C1=C(C)NC(=O)CC1c1ccccc1Br (stereo not drawn)	1.51	-1.29
CC(C)(C)c1nnc2sc(Cc3ccccc3)nn12	0.96	-0.34
Cc1ccc(S(=O)(=O)Nc2ccc3nc(-c4ccc(F)cc4)oc3c2)cc1	-2.82	0.26
CCN1C(=O)C2(/C(=C(/O)c3ccc(Cl)cc3)C(=O)C(=O)N2CCN2CCOCC2)c2ccccc21 (stereo not drawn)	1.66	0.14
O=C(CCc1nnc2ccc(N3CCOCC3)nn12)Nc1ccc(F)cc1	1.4	.
COC(=O)Cn1nc(C)c2sc3ccccc3c2c1=O	-1.16	-0.5
C=CCOC(=O)C1=C(C)NC2=C(C(=O)CCC2)C1c1ccc(C(=O)OC)cc1 (stereo not drawn)	-0.23	-1.15
CCN(CC)S(=O)(=O)N1CCCC(C(=O)NC2CCCC2)C1 (stereo not drawn)	-0.09	.
CCC1Oc2ccc(C)cc2NC1=S (stereo not drawn)	1.45	-2.27
CCOc1ccc(-c2cn(-c3ccc(C)cc3)c(SCC(=O)NCC3CCCO3)n2)cc1 (stereo not drawn)	.	-2.71
O=C(CSc1nc2ccc(NC(=O)c3ccco3)cc2s1)Nc1nccs1	0.7	0.57
CC(C)N(C(=O)CSc1nc2ccccc2[nH]1)C(C)C	1.9	0.32
O=S(=O)(c1ccccc1)c1cc(C(F)(F)F)cc(C(F)(F)F)c1	.	-1.41
COc1cc(C=Nc2ccc(Cl)cc2)ccc1OC(=O)C1CC1	.	-0.74
Cn1ncc2c(NCCc3cccs3)nc(N3CCCCC3)nc21	0.79	.
COC(=O)N1CC(=O)Nc2ccccc21	0.74	-1.3
NC(=O)CSc1nc(=O)cc(N)n1-c1ccc(F)cc1	6.66	-2.38
CSC(=CC(=O)c1ccccn1)SC	.	-0.13

Structural class, the entries above with an aryl methoxy group
SMILES	HIV TAR-Tat	CDC25B-CDK2 inh
COc1cc(OC)cc(-n2nnc(-c3nc(-c4cccnc4)no3)c2N)c1	1.04	.
COc1ccc(Nc2nc(-c3ccc(OC)cc3)no2)cc1	0.15	-3.26
COc1cnc(CSc2nnc(C)s2)cc1OCC(=O)Nc1ccc2c(c1)OCCO2	0.83	.
CCc1ccc(C2=Nn3c(nnc3-c3ccccc3OC)SC2)cc1	0.72	.
COc1cccc(/C=C/c2nc(C#N)c(NCCc3ccc(OC)c(OC)c3)o2)c1	1.35	-0.18
CCSc1nnc(NC(=O)c2cc(-c3ccc(OC)cc3)nc3ccccc23)s1	.	-3.58
COc1ccc(-c2csc3[nH]c(=S)[nH]c(=O)c23)cc1	.	-1.02
COc1ccc2cc(CCNC(=O)CC3CCCCC3)c(=O)[nH]c2c1	.	-2.1
COc1ccccc1-c1c(C)nn2c(N)c(-c3ccccc3)cnc12	0.71	-4.78
COc1ccc(NC(=O)CSc2nccn2C2CCCC2)cc1	1.21	.
COc1ccc(C2NC(=O)c3c(sc4c3CC(C)(C)OC4)N2)cc1 (stereo not drawn)	1.46	-0.64
COc1ccc(/C(O)=C2/C(=O)C(=O)N(CCc3ccccc3)C2c2ccc(Br)cc2)cc1 (stereo not drawn)	1.32	-2.82
COCCCn1c2c(c(=O)[nH]c1=O)C(c1ccccc1OC)C1=C(N2)c2ccccc2C1=O (stereo not drawn)	-0.07	-1.64
COc1ccccc1-n1c(SCC(=O)N2CCN(c3ccccc3)CC2)nc2c(c1=O)SCC2	0.7	-0.57
COc1ccc(-c2noc(N(C)Cc3ccccc3)n2)cc1OC	-1.19	.
COc1ccc(-c2oc3ccc(C)cc3c(=O)c2O)cc1	0.28	2.51
CCN(CC)c1ncnc2c1cnn2-c1ccc(OC)cc1	-0.11	.
COc1cc(C=Nc2ccc(Cl)cc2)ccc1OC(=O)C1CC1	.	-0.74
